Bfl-1 A1 inh = inhibitors of the anti-apoptotic protein A1, read as caspase activation | caspase activation, % (no concentration beside the values) | actives 0.066% (n = 330,000) | MEF A1-2A-BIM cells, Caspase-Glo 3/7 luminescence, 3 h; percent of clofoctol response, vehicle zero | AID 2462;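 active = over half of replicate activation scores above 10%, or exactly half above 10 with the replicate mean above 10; inconclusive = replicate mean below 10 yet half the replicates above 10; inactive = over half of replicates below 10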;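 also: wells of about 30 µL received 50 nL stock; many hits fall short of the cut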
Calb FLC = C. albicans growth modulation with fluconazole; AID 1979; growth inhibition, % (no concentration beside the values); C. albicans CaCi-2 (fluconazole-resistant clinical isolate) + fluconazole, Alamar Blue growth, 48 h; actives 0.57% (n = 300,000);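 active = most replicates above 75%; inconclusive = exactly half above 75%; inactive = most below 75%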;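 also: all wells also contain fluconazole at 8 µg/ml as a sub-toxic cotreatment; 0% = median of DMSO wells and 100% = median of geldanamycin control wells; wells of about 8 µL received 7.5 nL stock; the first replicate is given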
Beta cell apopt = beta cell apoptosis inhibition; INS-1E cytokine-induced death, ATP luminescence, 48 h; percent of positive-control rescue, neutral wells zero; protection from apoptosis, % (concentration not given with the values); actives 0.8% (n = 300,000);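 active = all replicates at 75% or more, or half of them and the mean; inconclusive = half reach 75% but not the mean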;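 also: 0% = cytokine-treated negative control wells and 100% = positive control rescue; higher means more ATP so stronger rescue from cytokine killing; wells of about 40 µL received 100 nL stock; the first replicate is given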
T cruzi repl = blocks replication of Trypanosoma cruzi; AID 1885; T. cruzi beta-gal in NIH3T3, luminescence, 90 h; inhibition, % (concentration not given with the values); actives 1.4% (n = 300,000);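 active = mean inhibition across valid replicates above about 55%, limit read from the data; inconclusive = mean below that limit but half or more replicates reach it; inactive = mean below it, under half of replicates reach it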;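 also: signal also drops with host cell toxicity which is not excluded here; 0% = plate median of DMSO wells and 100% = zero luminescence signal; higher percent means less beta-gal luminescence so fewer parasites; stock transfer was 50 nL into about 50 µL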
rRNA inh HTS = inhibits bacterial ribosomal RNA function over humanized ribosomes; E. coli WT GFP vs humanized-ribosome RFP mutants, fluorescence, 24 h; hits give low values; DMSO median 0, no signal -100; GFP signal change (wild-type ribosome), % (test concentration not listed); actives 1.6% (n = 350,000);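 active = significant combined selectivity score with lowered wild-type GFP, culture density cut under 30%, mutant RFP and density less affected; inactive = any of these conditions unmet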; also: one replicate is shown; some compounds called inactive have numbers as strong as hits
LANA-H2B inh = blocks KSHV LANA binding to histone H2A/H2B | actives 0.6% (n = 320,000) | cell-free LANA-H2A/H2B peptide, fluorescence polarization | inhibition, % (no concentration beside the values) | Q9QR71; in the data active = inhibition mostly above about 10%, no sharp cut-off; inactive = mostly below about 6.7%;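 also: stock transfer was 7.5 nL into about 10 µL; 0% = median of vehicle wells and 100% = median of positive control wells; one replicate is shown; the record names a cut of 25% in any replicate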
Target sequence (Q9QR71 whole entry, looked up): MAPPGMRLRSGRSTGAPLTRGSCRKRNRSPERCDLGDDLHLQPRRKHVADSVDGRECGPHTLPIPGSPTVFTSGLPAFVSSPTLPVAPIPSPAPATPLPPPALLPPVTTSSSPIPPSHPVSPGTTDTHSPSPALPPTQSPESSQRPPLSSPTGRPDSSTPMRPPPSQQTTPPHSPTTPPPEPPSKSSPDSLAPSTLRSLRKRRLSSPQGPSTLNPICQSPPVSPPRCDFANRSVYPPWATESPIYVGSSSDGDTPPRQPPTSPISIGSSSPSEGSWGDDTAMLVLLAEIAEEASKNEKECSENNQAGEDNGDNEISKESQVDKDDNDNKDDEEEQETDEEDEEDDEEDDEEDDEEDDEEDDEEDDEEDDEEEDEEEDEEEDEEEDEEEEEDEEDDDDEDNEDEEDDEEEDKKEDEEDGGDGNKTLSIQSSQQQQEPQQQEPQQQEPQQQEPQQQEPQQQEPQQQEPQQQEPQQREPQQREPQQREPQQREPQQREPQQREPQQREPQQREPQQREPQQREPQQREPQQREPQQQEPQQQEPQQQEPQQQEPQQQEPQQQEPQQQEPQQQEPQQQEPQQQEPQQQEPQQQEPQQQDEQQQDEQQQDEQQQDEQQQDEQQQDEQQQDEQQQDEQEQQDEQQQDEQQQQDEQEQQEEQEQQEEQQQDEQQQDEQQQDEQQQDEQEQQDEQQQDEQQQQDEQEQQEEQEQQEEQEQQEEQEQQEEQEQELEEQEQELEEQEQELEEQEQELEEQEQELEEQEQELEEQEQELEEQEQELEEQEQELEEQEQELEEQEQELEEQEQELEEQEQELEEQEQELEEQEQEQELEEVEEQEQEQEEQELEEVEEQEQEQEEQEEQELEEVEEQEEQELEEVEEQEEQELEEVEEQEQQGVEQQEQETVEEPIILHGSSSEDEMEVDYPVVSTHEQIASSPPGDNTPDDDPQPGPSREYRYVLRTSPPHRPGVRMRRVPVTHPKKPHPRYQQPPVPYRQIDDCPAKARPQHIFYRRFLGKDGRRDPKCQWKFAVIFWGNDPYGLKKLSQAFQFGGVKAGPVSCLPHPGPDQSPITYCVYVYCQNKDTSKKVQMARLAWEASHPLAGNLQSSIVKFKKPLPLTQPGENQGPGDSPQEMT
ALR H2O2 inh = blocks human ALR sulfhydryl oxidase activity. purified ALR, DTT oxidation, H2O2 HRP-luminol luminescence. inhibition, % (test concentration not listed). AID 485317. actives 3.8% (n = 290,000);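 active = mean and each replicate at 75% or more; inconclusive = only one of the two met; inactive = neither met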;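 also: stock transfer was 7.5 nL into about 7.5 µL; 0% = neutral wells and 100% = wells with inactivated enzyme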
Beta2AR agonist = human beta-2 adrenergic receptor agonism by FAP | P07550 | Am2.2-beta2AR cells, FAP receptor internalization, flow cytometry; reference of the scale not given here | response, % (no concentration beside the values) | actives 0.43% (n = 340,000);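 active = response above a set limit, near 3 SD of response in nonfluorescent compounds, cut at about 42% in these data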;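 also: stock transfer was 100 nL into about 11 µL; a reference agonist was the positive control; negative values mostly stem from fluorescent compounds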
rRNA inh HTS OD600 = recorded beside rRNA inh HTS, whose call it bears; OD600 change, %; measured here: OD600 growth;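 optical density of the mix in the first replicate; 0 = DMSO median and -100 = no signal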
rRNA inh HTS RFP = second read-out of rRNA inh HTS, no call of its own (marks repeat the call); RFP signal change, %; measured here: RFP humanized mutant strains;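 first replicate; 0 = DMSO median and -100 = no signal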
Active calls of the source: *; ? = inconclusive; nt = not tested or not shown. Only part of the results is shown. The share of hits here may be higher or lower than overall.

The line under a structure holds: rRNA inh HTS OD600	rRNA inh HTS	T cruzi repl	Calb FLC	LANA-H2B inh	Beta cell apopt	Bfl-1 A1 inh	rRNA inh HTS RFP	Beta2AR agonist	ALR H2O2 inh
- COc1ccccc1S(=O)(=O)Cc1ccc(C(=O)N2CCCC2)o1
    3	-1	-11	-1	2.2	-3	-0.1	-0.6	-3	93*
- Cc1ccc2nc(-c3cccc(Br)c3)cc(C(=O)Nn3cnnc3)c2c1
    16	21	-13	5	1.9	-1	-0.9	6.4	2	2
- Cc1[nH]n(-c2ccccc2)c(=O)c1/C=N/NC(=O)COc1ccccc1[N+](=O)[O-]
    -42	-31	-35	-42	0.3	76*	0.1	-8.2	2	19
- NC(=O)CSc1nnc(CNc2cccc(Cl)c2)n1CCc1ccccc1
    nt	nt	-8	1	-3.1	1	0.0	nt	7	?
- Cc1cc(C)c(C)c(S(=O)(=O)N[C@@H](C)C(=O)OCC(=O)NC2CCCC(C)C2C)c1C (stereo partly drawn)
    -1	-4	nt	nt	0.1	-4	0.0	1.1	-9	-3
- CN(CC(=O)O/N=C(\N)c1ccc([N+](=O)[O-])cc1)S(=O)(=O)c1ccc2ccccc2c1
    nt	nt	5	6	-4.1	-1	-0.2	nt	-2	-15
- CCOC(=O)Cn1c(=O)c2c(nc3n2CCCN3Cc2ccccc2)n(C)c1=O
    7	4	18	-2	2.7	3	0.5	-0.3	5	-14
- C[N+](C)(C)CC(=O)N/N=C/c1c2ccccc2cc2ccccc12
    -15	-7	3	3	-2.1	nt	1.1	-1.5	-1	-9
- Cn1c(=O)c2c(ncn2CC(=O)Nc2nccs2)n(C)c1=O
    -2	7	-6	1	4.2	-2	0.2	-2.5	7	nt
- Cc1nnc(-c2ccc(N3CCOCC3)c([N+](=O)[O-])c2)o1
    nt	nt	nt	nt	-1.1	3	0.0	nt	-7	-6
- COc1ccccc1CNC(=O)C1CC(c2ccc([N+](=O)[O-])cc2)=NO1 (stereo not drawn)
    12	13	10	-5	-5.0	-4	2.2	1.2	-2	-8
- CC(=O)c1ccc(C(=O)N2CCCC(CCC(=O)N(C)CCc3ccccn3)C2)s1 (stereo not drawn)
    6	3	-9	-12	0.5	4	0.3	0.5	-7	-1
- COc1ccc(OC)c(NC(=O)c2ccc3c(=O)n(CCc4ccccc4)c(=S)[nH]c3c2)c1
    9	5	1	17	nt	8	0.1	1.0	-4	nt
- S=c1[nH]nc(COc2ccccc2)n1/N=C/c1ccco1
    5	5	-2	5	3.0	0	-0.2	-2.0	4	59
- CC(c1nccs1)N(C)C(=O)CCc1nnc(-c2ccc(-c3ccccc3)cc2)o1 (stereo not drawn)
    -13	-15	-13	17	0.3	9	1.5	1.2	-3	nt
- CCCCC(=O)Nc1ccc(C(=O)NNC(=O)c2ccccc2Br)cc1
    4	7	-14	5	6.8	-6	0.4	-2.0	5	nt
- Cc1ccc(S(=O)(=O)N[C@@H](C)C(=O)OCC(=O)N2c3ccccc3NC(=O)C2(C)C)cc1
    nt	nt	nt	nt	-8.6	-2	-0.2	nt	4	nt
- CC12c3ccccc3C(c3ccccc31)C1C(=O)N(Cc3cccnc3)C(=O)C12 (stereo not drawn)
    nt	nt	17	10	-2.3	-4	-0.6	nt	-4	31
- COc1ccc(Cl)cc1NC(=O)CN(C)C(=O)c1sccc1-c1ccccc1
    -27*	-33*	nt	nt	nt	-7	0.4	-2.4*	5	3
- O=S(=O)(NCc1cc(-c2ccc(Cl)cc2)no1)c1ccc(Cl)cc1
    nt	nt	-3	?	3.4	1	-0.3	nt	-2	-1

Copied from the list.
`Cn1c(=O)c2c(ncn2CC(=O)Nc2nccs2)n(C)c1=O` in T cruzi repl shows -6
`CC12c3ccccc3C(c3ccccc31)C1C(=O)N(Cc3cccnc3)C(=O)C12` (stereo not drawn) in Beta cell apopt shows -4
`CCCCC(=O)Nc1ccc(C(=O)NNC(=O)c2ccccc2Br)cc1` in Beta cell apopt shows -6
`Cc1nnc(-c2ccc(N3CCOCC3)c([N+](=O)[O-])c2)o1` in LANA-H2B inh shows -1.1
`COc1ccc(Cl)cc1NC(=O)CN(C)C(=O)c1sccc1-c1ccccc1` in rRNA inh HTS RFP shows -2.4*

More compounds
The line under a structure holds: rRNA inh HTS OD600	rRNA inh HTS	T cruzi repl	Calb FLC	LANA-H2B inh	Beta cell apopt	Bfl-1 A1 inh	rRNA inh HTS RFP	Beta2AR agonist	ALR H2O2 inh
- CCOc1ccccc1OCC(=O)Nc1ccc(Cl)cc1Cl
    nt	nt	-11	0	-5.1	-1	-0.6	nt	-9	-8
- Cc1c(NC(=O)c2cc(-c3ccc(F)cc3)on2)c(=O)n(-c2ccccc2)n1C
    0	-3	-5	-5	-4.5	-2	-1.0	0.2	-6	9
- O=S(=O)(NCc1ccccc1)c1ccc(S(=O)(=O)N(Cc2ccccn2)C2CCCC2)cc1
    nt	nt	21	12	4.8	nt	-1.2	nt	4	-15
- COc1cccc(-c2nnc(SCC(=O)Nc3ccc(S(N)(=O)=O)cc3)n2C)c1
    nt	nt	-8	-25	-2.2	-2	-0.1	nt	2	nt
- O=C(c1ccco1)N1CCN=C1SCc1ccc(F)cc1
    -7	2	-6	6	3.3	-3	-0.4	0.2	-28	-6
- CCC(=O)NCCc1nc2cc(NC(=O)c3ccccc3OC)ccc2n1C
    nt	nt	-7	9	-2.0	-2	-0.1	nt	-12	-8
- CC[C@@](C)(NS(=O)(=O)OCC(Cl)(Cl)Cl)c1ccccc1
    -10	-8	-12	-12	-2.0	0	0.7	1.3	-727	nt
- COc1ccc(CNC(=S)Nc2ccc(OC)cc2)cc1
    nt	nt	-10	-3	10	4	0.7	nt	8	-11
- COc1cc(CNCCN(C)C)c(Br)cc1OCC(=O)NCc1ccccc1
    nt	nt	11	-2	-4.8	5	-0.6	nt	-4	-2
- Cn1c(=O)c2c(nc(Oc3ccc4c(c3)OCO4)n2Cc2ccc(F)cc2)n(C)c1=O
    nt	nt	-5	-13	3.1	nt	0.7	nt	-4	-35

Rewritten as labelled records: 2 of the compounds above.
COc1cc(CNCCN(C)C)c(Br)cc1OCC(=O)NCc1ccccc1
  rRNA inh HTS OD600 = nt	rRNA inh HTS = nt	T cruzi repl = 11	Calb FLC = -2	LANA-H2B inh = -4.8	Beta cell apopt = 5	Bfl-1 A1 inh = -0.6	rRNA inh HTS RFP = nt	Beta2AR agonist = -4	ALR H2O2 inh = -2
Cn1c(=O)c2c(nc(Oc3ccc4c(c3)OCO4)n2Cc2ccc(F)cc2)n(C)c1=O
  rRNA inh HTS OD600 = nt	rRNA inh HTS = nt	T cruzi repl = -5	Calb FLC = -13	LANA-H2B inh = 3.1	Beta cell apopt = nt	Bfl-1 A1 inh = 0.7	rRNA inh HTS RFP = nt	Beta2AR agonist = -4	ALR H2O2 inh = -35
